Source: PubChem BioAssay (National Center for Advancing Translational Sciences (NCATS))
CtBP-E1A inh: CtBP/E1A binding inhibition. activity change, % (test concentration not listed). AlphaScreen GST-E1A/His-CtBP binding, 1536-well; stronger effect = lower value; control for the full effect not named in the record. 340,000 tested, 0.49% active; in the data active means activity change below about -65%; inconclusive means about -30% to -65%; inactive means above about -30%; note: % is set by controls: 0 for no effect and ±100 for the full control effect; compound concentration not given in the record
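AlphaScreen with 125 nM GST-E1A and 125 nM His-CtBP (5X stocks) in Tris pH 8.0, 300 mM NaCl, BSA, Tween 20, TCEP. Compounds preincubated 2 h at 37 deg C, then glutathione donor/nickel acceptor beads added for 1 h at 37 deg C in dark.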
TRPV1 potentiator: human TRPV1 potentiation; Q8NER1; TRPV1-expressing cells, Fluo-8 calcium influx, capsaicin EC20 potentiation; host cell line not named in the record; control for the full effect not named in the record; potentiation, % at 8.33 µM; 320,000 tested, 0.02% active; active means potentiation above 80%; inconclusive means 30% to 80%; inactive means below 30%; note: 0% is about no effect
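TRPV1-expressing cells were cultured overnight at 35.5C and loaded with Fluo-8 calcium dye for 40 to 90 min at room temperature. After a 10 s baseline, compound was added and calcium influx was read kinetically for 3 min (ex 480/em 520 nm).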
TRPML1 inh: inhibitors of human TRPML1 channel. 390,000 tested, 0.02% active. TRPML1-inducible cells, Ca2+ dye fluorescence, FDSS; stronger effect = lower value; inhibition of EC80 agonist-evoked calcium signal. Q9GZU1. activity change, negative = inhibition, % (test concentration not listed); in the data active means activity change below about -50%; inconclusive means about -30% to -50%; inactive means above about -30%;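 note: stimulus is agonist 54-4 at its EC80 concentration; % is set by controls: 0 for no effect and ±100 for the full control effect; compound concentration not given in the record; the text of the record puts the active cut at -80%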
Target sequence (Q9GZU1 whole entry, looked up): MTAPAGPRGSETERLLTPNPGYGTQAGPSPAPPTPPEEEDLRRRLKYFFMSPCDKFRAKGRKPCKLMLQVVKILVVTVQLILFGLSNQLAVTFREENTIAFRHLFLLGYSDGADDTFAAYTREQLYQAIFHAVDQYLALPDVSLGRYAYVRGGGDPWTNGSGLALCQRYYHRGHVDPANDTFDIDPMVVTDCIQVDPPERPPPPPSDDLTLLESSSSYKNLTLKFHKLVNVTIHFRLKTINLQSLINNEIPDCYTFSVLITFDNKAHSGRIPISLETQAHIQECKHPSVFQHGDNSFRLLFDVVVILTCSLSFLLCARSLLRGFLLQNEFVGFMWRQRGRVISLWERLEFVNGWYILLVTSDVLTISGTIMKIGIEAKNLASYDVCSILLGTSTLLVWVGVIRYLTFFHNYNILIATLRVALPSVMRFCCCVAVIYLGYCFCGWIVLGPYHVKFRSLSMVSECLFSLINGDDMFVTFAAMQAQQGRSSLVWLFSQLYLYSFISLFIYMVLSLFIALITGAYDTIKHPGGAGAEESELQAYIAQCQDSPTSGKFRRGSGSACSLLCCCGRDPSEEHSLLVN
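Calcium fluorescence in TRPML1-DL cells induced overnight with Tet: a 110 s read after compound pin addition, then a 110 s antagonist read after challenge with 54-4 at 4 uM final (EC80).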
Six1-Eya2 inh: Six1/Eya2 interaction inhibition | 360,000 tested, 0.56% active | AID 651725 | Q15475+O00167 | activity change, % (test concentration not listed) | AlphaScreen GST-Six1/His-Eya2 binding, biochemical; stronger effect = lower value; control for the full effect not named in the record; in the data active = activity change below about -65%; inconclusive = about -30% to -65%; inactive = above about -30%; note: % is set by controls: 0 for no effect and ±100 for the full control effect; compound concentration not given in the record
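Homogeneous AlphaScreen proximity assay pairing GST-Six1 with His-tagged Eya2 (added as 5X mix: 250 nM and 500 nM) in 50 mM Tris pH 8.0, 300 mM NaCl, 1 mM TCEP. Glutathione donor and nickel acceptor beads; 1 h, 37 °C, dark.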
TRPML1 agonist: agonists of human TRPML1 channel. Q9GZU1. TRPML1-expressing cells, Ca2+ dye fluorescence, FDSS; host cell line not named in the record; reference of the full effect not given here. activation, % (test concentration not listed). 410,000 tested, 0.12% active; in the data active = activation above about 50%; inconclusive = about 30% to 50%; inactive = below about 30%; note: 0% is about no effect; the text of the record puts the active cut at 80%
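Calcium fluorescence on an FDSS kinetic reader gave the read-out. Tet-induced TRPML1-DL cells were plated overnight, dye-loaded (Ca8 with quencher, 45-90 min, room temperature, dark), then read 110 s after compound addition, and again 110 s after 4uM final 54-4 (EC80).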
D2 potentiator: human D2 receptor positive allosteric modulation; 360,000 tested, 0.23% active; DiscoveRx D2 beta-arrestin cells, luminescence, 90 min; 100% = 57 uM dopamine signal; potentiation, % (test concentration not listed); AID 624464; active = potentiation of 50% or more; inconclusive = 30% to 50%; inactive = 30% or less;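 note: compound concentration not given in the record; tested on top of an EC20 dose of dopamine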
Target sequence (P14416 whole entry, looked up): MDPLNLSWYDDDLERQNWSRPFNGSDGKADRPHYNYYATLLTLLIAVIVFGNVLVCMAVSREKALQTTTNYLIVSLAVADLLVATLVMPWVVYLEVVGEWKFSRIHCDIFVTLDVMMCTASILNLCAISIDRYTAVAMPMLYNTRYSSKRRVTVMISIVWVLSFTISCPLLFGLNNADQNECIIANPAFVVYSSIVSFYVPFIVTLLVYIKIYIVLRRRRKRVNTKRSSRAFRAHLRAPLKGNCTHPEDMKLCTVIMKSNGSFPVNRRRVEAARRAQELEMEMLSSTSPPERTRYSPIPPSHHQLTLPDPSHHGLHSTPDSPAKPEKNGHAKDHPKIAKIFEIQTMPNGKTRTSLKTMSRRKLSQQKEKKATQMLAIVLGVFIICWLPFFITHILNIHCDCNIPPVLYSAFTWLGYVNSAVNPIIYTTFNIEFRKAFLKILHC
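PathHunter D2 cells, attached overnight at 37 deg C, received compound in DMSO plus dopamine at EC20 (50 nM final) for 90 min at 37 deg C. Beta-arrestin recruitment was read as luminescence after 1 h with detection reagent at ambient temperature.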
* marks the source's active call; other numbers are inactive results; ? = inconclusive; . = not tested or not shown; & = joins results of further samples.

SMILES	CtBP-E1A inh	TRPV1 potentiator	TRPML1 inh	Six1-Eya2 inh	TRPML1 agonist	D2 potentiator
Cc1oc(-c2ccccc2F)nc1CS(=O)CC(=O)NCCN1CCCCC1C (stereo not given)	-12	1	-24	-1	-0.7	-15
Nc1ccc(-c2ccc(N)cc2C(F)(F)F)c(C(F)(F)F)c1	-3	-1	-21	0	1.4	-3
CCOC(=O)C1=C(COC(=O)c2ccc(C)s2)NC(=O)NC1C (stereo not given)	-8	-3	4	3	0.7	7
CCC1(O)C(=O)OCc2c1cc1n(c2=O)Cc2cc3cc(O)ccc3nc2-1 (stereo not given)	-6	.	.	-10	.	-43
Cc1cc2c(c(C)nn2-c2ccccc2)c(=O)o1	-4	0	9	-12	-0.3	16
Cc1cccc(Cl)c1NNC(=O)Nc1c([N+](=O)[O-])c(C)nn1C	-1	11	-11	-2	-0.6	-6
C/C(Cl)=C\Cn1c(Nc2ccccc2)nc2c1c(=O)n(C)c(=O)n2C	-1	-1	1	4	-0.4	8
COCCNC(=O)CC(=O)N/N=C/c1ccc(C(=O)OC)cc1	1	-7	-6	-18	-0.8	-22
Cc1cc(Cl)ccc1N(CC(=O)NCCSCc1ccco1)S(C)(=O)=O	-2	-6	7	1	0.5	0
O=C(N/N=C/c1cccnc1)c1ccc(F)cc1	-17	-1	62	-18	-1.6	-4
CC1(c2nnc(-c3cccc(Cl)c3)o2)CC(c2ccc(OC(F)(F)F)cc2)=NO1 (stereo not given)	12	27	3	24	0.1	-6
CCOc1ccc(NC(=O)CSc2nc(-c3cccs3)cc(C(F)(F)F)n2)c([N+](=O)[O-])c1	6	-5	3	0	0.7	-4
COc1cccc(C(=O)O[C@H]2[C@H](Cc3ccccc3)NS(=O)(=O)[C@H]3C[C@@H]4C=C[C@]23O4)c1	0	.	-17	16	1.3&-0.1	-3
CCOC(=O)CCNC(=O)CCNC(=O)C(c1ccccc1)c1ccccc1	7	15	-3	-11	-0.2	-2
Cc1ncsc1C(=O)N1CCCC(CNS(=O)(=O)c2cccs2)C1 (stereo not given)	-14	21	-10	9	0.3	-10
CC(Oc1ccc(Cl)cc1)c1ccnn1S(=O)(=O)c1ccc(Cl)cc1 (stereo not given)	36	-9	21	28	11	-5
COc1ccc(N2CCN(C(=O)CCC(=O)c3cc(C)sc3C)CC2)cc1	-14	-12	-15	-19	0.4	-8
COc1ccc(NC(=O)COC(=O)CNS(=O)(=O)c2ccc(C)cc2)c(OC)c1	7	8	10	-30	-0.7	-5
COc1ccc(-c2sc(Nc3cccc4ccccc34)n[n+]2C)c(C)c1C	5	.	8	7	-0.2	-7
CCOC(=O)C1(Cc2ccc(OC)cc2)CCN(C(=O)C2CC(=O)N(C3CC3)C2)CC1 (stereo not given)	1	21	7	3	-0.3	4
c1ccc2c(Cn3ccnc3)c[nH]c2c1	-1	6	-2	0	-0.1	-3
CCOC(=O)c1nc(C)n(-c2ccc(Cl)cc2Cl)n1	-6	-13	-4	2	-0.5	-9
O=C(O)c1ccccc1-c1ccc(/C=C2\SC(=O)N(c3ccccc3)C2=O)o1	.	-3	-7	-1	0.6	-12
Cc1nn2cc(-c3ccc(Cl)cc3)nc2s1	10	20	6	0	-1.1	-18
COC(=O)c1ccc([C@H]2CC(=O)O2)cc1	1	-14	2	-1	-0.4	-6
O=C(CNC(=O)c1cc(Cl)nc2ccccc12)Nc1ccccc1Br	-2	6	2	0	-0.3	-5
ClCCN1C2=NCCCN2c2ccccc21	.	10	1	-9	1.0	-11
O=C1/C(=C/Nc2ccc3c(c2)OCO3)CCc2ccccc21	4	14	-24	-14	3.6	-25
Cc1cc(NC(=O)CSCC(=O)N(c2cccc(Cl)c2)C(C(=O)NC2CCCCC2)c2ccc(O)c(O)c2)no1 (stereo not given)	6	3	30	8	-0.7	-12
CCOc1cc(/C=N/NC(=O)CNc2cccc(C)c2)ccc1OC(=O)c1ccccc1	-9	9	-25	-23	0.3	5
O=C(NCc1ccccc1)C12CC3CC(CC(Cl)(C3)C1)C2	0	-7	-1	4	-0.6	-8
Cc1c(-c2nc(-c3ccc(C(F)(F)F)cc3)no2)n(C)oc1=O	8	14	19	4	0.2	8
COC(=O)c1c(-c2ccccc2)csc1NC(=O)CSc1ncnc2sc(C)c(C)c12	2	-2	-29	7	1.0	-13
COc1cccc(C2=CC(c3ccc(OC)c(OC)c3)NC(=S)N2)c1 (stereo not given)	.	21	45	-4	2.1	1
Cc1ccc2nsnc2c1N(S(C)(=O)=O)S(C)(=O)=O	-5	3	46	11	0.4	2
COc1ccc(-c2nc(N)nc(C)c2Oc2ccccc2Br)c(O)c1	-25	-16	27	-20	1.5	-3
CN(Cc1ccccc1)C(=O)Cn1c(=O)oc2cc(S(=O)(=O)N3CCCC3)ccc21	1	2	13	5	-0.1	-3
CC(C)CN(CC(C)C)C(=O)CN1C(=O)NC2(CCc3ccccc3C2)C1=O (stereo not given)	.	4	24	8	0.9	-3
COc1cccc(C(=O)NC(=S)Nc2ccccc2N2CCOCC2)c1	-13	-4	20	-19	0.8	2
N#Cc1c(N)nc2c(c1-c1ccccc1)CCC2	3	-6	12	1	0.5	-12
CC(C)Cc1ccc(CN2CCCC(NC(=O)c3cnc4ccccn4c3=O)C2)cc1 (stereo not given)	3	.	10	0	-0.7	8
O=C(NC(N1CCOCC1)C(Cl)(Cl)Cl)c1ccc(F)cc1 (stereo not given)	2	4	22	-1	-0.5	4
Cc1cccc(N(CC(=O)N2CCCCCC2)S(C)(=O)=O)c1C	-1	5	-1	8	-0.2	-3
N#Cc1ccccc1NC(=O)COc1ccc2c(c1)OCO2	2	2	15	-6	0.4	-5
CC(=O)N1c2ccc(S(=O)(=O)NCCC(=O)Nc3ccc(C)c(Cl)c3)cc2CC1C (stereo not given)	1	9	2	1	-1.2	-17
Cc1ccc(CNC(=O)C2CC3Cn4c(nc5ccccc54)C3N2C)o1 (stereo not given)	.	-13	20	1	-0.1	0
COC(C(=O)Nc1ccccc1C(=O)N1CCOCC1)c1ccccc1 (stereo not given)	4	5	46	8	-0.2	-7
Cc1ccccc1OCC(=O)Nc1ccc(S(=O)(=O)Nc2ccccn2)cc1	-11	15	-10	0	2.0	-3
CCCC(C)C(=O)Nc1ccc(S(=O)(=O)N2CCCC2)cc1 (stereo not given)	9	-21	-4	4	0.0	-10
COc1ccc(OC)c(C=NNC(=O)c2ccc(NS(=O)(=O)c3cccs3)cc2)c1	3	.	9	-1	-0.1	-13
Further results follow:
SMILES	CtBP-E1A inh	TRPV1 potentiator	TRPML1 inh	Six1-Eya2 inh	TRPML1 agonist	D2 potentiator
COc1cccc(OCc2cc(C(=O)NCc3cnc4ccccn34)no2)c1	.	-11	24	-20	0.1	-4
COCCN(CCOC)S(=O)(=O)c1ccc(C(=O)Nc2c(C)n(C)n(-c3ccccc3)c2=O)cc1	6	5	-4	21	-0.7	1
CN(C)CCNc1ncnc2sc(-c3ccccc3)cc12	5	3	-7	4	-1.1	-10
Cc1ccccc1CSCc1nc(N)nc(Nc2ccccc2C)n1	-5	3	11	-6	5.6	-5
O=c1cc(COn2nnc3ccc(C(F)(F)F)cc32)nc2sccn12	7	?	5	4	-1.2	-9
Cc1ccc(C(O)c2ncc(-c3cccc4ccccc34)[nH]2)c(C)c1 (stereo not given)	-15	.	.	-16	0.4	-8
OCCN1CCN(C(=S)Nc2cccc(C(F)(F)F)c2)CC1	0&-17	1	1&-1	8&-7	0.3&0.6	-10&-15
Cc1nc2ccc(C(=O)N3CCN(c4ccccc4)CC3)cc2s1	3	4	-9	-3	-0.4	-4
CC(C)(C)n1nc2c(c1NC(=O)c1cc3ccccc3o1)CS(=O)(=O)C2	3	-18	9	-5	-0.6	-7
CNS(=O)(=O)c1cccc(C(=O)OCC(=O)N2CCCC2)c1	4	-2	2	11	-0.4	-8
Cc1cc(NC(=S)N(Cc2cccc(Br)c2)CC2CCC(C(=O)O)CC2)ccc1Cl (stereo not given)	-19	-5	-9	-2	0.5	13
Nc1ccc(C(=O)Nc2ccc3nc(-c4cccnc4)[nH]c3c2)cc1	?	9	25	-24	-1.0	6
NNC(=O)Cc1cc(=O)[nH][nH]1	-13	.	26	-2	0.1	-8
Cc1ccc(-c2c(C(=O)N3CCOCC3)oc(=O)c3ccccc23)cc1	-23	.	25	4	1.5	-1
CCCOc1c(Br)cc(C(=O)OCc2cc(=O)n3ccsc3n2)cc1OC	.	.	20	3	0.2	-8
O=C(COC(=O)c1nc(Cl)ccc1Cl)NCc1cccs1	-11	-6	2	4	1.5	3
Cc1ccc(S(=O)(=O)Nc2nc(C)c(C(=O)NNS(=O)(=O)c3ccccc3)s2)cc1	-9	18	22	-7	-0.7	5
COc1cc(-c2[nH]ncc2CN2CCCC2c2nonc2C)cc(OC)c1OC (stereo not given)	.	-6	46	6	0.2	-9
COc1ccc(/C=N/Nc2nc(-c3ccc(Cl)cc3)cc(C(F)(F)F)n2)cc1OC	-8	-5	-2	-16	1.2	24
O=C1NCCCCC1NS(=O)(=O)c1cccc(C(F)(F)F)c1 (stereo not given)	.	9	-16	-1	-0.2	-3

Structures above that contain an NH in an aromatic ring (5):
SMILES	CtBP-E1A inh	TRPV1 potentiator	TRPML1 inh	Six1-Eya2 inh	TRPML1 agonist	D2 potentiator
c1ccc2c(Cn3ccnc3)c[nH]c2c1	-1	6	-2	0	-0.1	-3
Cc1ccc(C(O)c2ncc(-c3cccc4ccccc34)[nH]2)c(C)c1 (stereo not given)	-15	.	.	-16	0.4	-8
Nc1ccc(C(=O)Nc2ccc3nc(-c4cccnc4)[nH]c3c2)cc1	?	9	25	-24	-1.0	6
NNC(=O)Cc1cc(=O)[nH][nH]1	-13	.	26	-2	0.1	-8
COc1cc(-c2[nH]ncc2CN2CCCC2c2nonc2C)cc(OC)c1OC (stereo not given)	.	-6	46	6	0.2	-9

Three entries out of the list above, arranged by the value under CtBP-E1A inh, ascending.
| smiles | CtBP-E1A inh | TRPML1 inh | Six1-Eya2 inh | D2 potentiator |
| --- | --- | --- | --- | --- |
| O=C(COC(=O)c1nc(Cl)ccc1Cl)NCc1cccs1 | -11 | 2 | 4 | 3 |
| Cc1ccc(S(=O)(=O)Nc2nc(C)c(C(=O)NNS(=O)(=O)c3ccccc3)s2)cc1 | -9 | 22 | -7 | 5 |
| COc1ccc(/C=N/Nc2nc(-c3ccc(Cl)cc3)cc(C(F)(F)F)n2)cc1OC | -8 | -2 | -16 | 24 |
